rRNA inh HTS = inhibitors of bacterial rRNA selective over humanized ribosomes; E. coli WT GFP vs humanized-ribosome RFP mutants, fluorescence, 24 h; stronger effect = lower value; DMSO median 0, no signal -100; GFP signal change (wild-type ribosome), % (test concentration not listed); 1.6% of 350,000 active;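 active = significant combined selectivity score with lowered wild-type GFP, culture density cut under 30%, mutant RFP and density less affected; inactive = any of these conditions unmet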; note: one replicate is shown; some compounds called inactive have numbers as strong as hits
UCH37 DUB inh = inhibitors of human deubiquitinating enzyme UCH37; Q9Y5K5; AID 588478; 0.33% of 330,000 active; purified proteasome/UCH37, Ub-AMC cleavage fluorescence; inhibition, % (test concentration not listed);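 active = mean of two replicates above 20%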;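 note: 0% = compound-free wells with enzyme and 100% = wells lacking proteasome; stock transfer was 100 nL into about 20 µL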
Target sequence (Q9Y5K5 whole entry, looked up): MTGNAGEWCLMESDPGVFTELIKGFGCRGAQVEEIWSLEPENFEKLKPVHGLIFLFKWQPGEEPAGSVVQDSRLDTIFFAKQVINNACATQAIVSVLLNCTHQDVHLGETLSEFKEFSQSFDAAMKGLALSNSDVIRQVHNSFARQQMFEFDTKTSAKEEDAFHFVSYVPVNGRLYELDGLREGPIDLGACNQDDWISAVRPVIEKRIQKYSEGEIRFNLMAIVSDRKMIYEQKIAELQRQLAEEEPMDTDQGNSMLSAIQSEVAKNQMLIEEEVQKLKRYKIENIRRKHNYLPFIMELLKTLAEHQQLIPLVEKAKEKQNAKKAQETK
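Material: Human UCH37 enzyme supplied as purified proteasome complex | Schedule: 30 min compound-proteasome preincubation then 25 min substrate reaction, room temperature | Detection: AMC fluorescence from Ub-AMC cleavage, excitation 355 nm, emission 460 nm | Benchmarks: Wells without proteasome as full block, compound-free enzyme plus substrate as uninhibited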
T cruzi repl = T. cruzi replication inhibition; 1.4% of 300,000 active; inhibition, % (concentration not given with the values); T. cruzi beta-gal in NIH3T3, luminescence, 90 h;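 active = mean inhibition across valid replicates above about 55%, limit read from the data; inconclusive = mean below that limit but half or more replicates reach it; inactive = mean below it, under half of replicates reach it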;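 note: signal also drops with host cell toxicity which is not excluded here; 0% = plate median of DMSO wells and 100% = zero luminescence signal; higher percent means less beta-gal luminescence so fewer parasites; stock transfer was 50 nL into about 50 µL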
Bfl-1 A1 inh = inhibitors of the anti-apoptotic protein A1, read as caspase activation | MEF A1-2A-BIM cells, Caspase-Glo 3/7 luminescence, 3 h; percent of clofoctol response, vehicle zero | caspase activation, % (no concentration beside the values) | 0.066% of 330,000 active | AID 2462;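 active = over half of replicate activation scores above 10%, or exactly half above 10 with the replicate mean above 10; inconclusive = replicate mean below 10 yet half the replicates above 10; inactive = over half of replicates below 10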;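 note: wells of about 30 µL received 50 nL stock; many hits fall short of the cut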
MLL AF4-AF9 inh = MLL-AF4/AF9 protein interaction inhibition | P42568 | AlphaScreen, biotin-AF4 peptide binding to FLAG-AF9 | AID 651704 | inhibition, % at 10 µM | 0.47% of 350,000 active;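 active = every replicate reaching a set inhibition limit, whatever the replicate mean, cut at about 25% in these data; inconclusive = mean inhibition reaches that limit but some replicates miss it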;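 note: 0% = plate neutral control median and 100% = total signal loss; the record names both 10 and 1 µM as test concentration; the first replicate is given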
Target sequence (P42568 whole entry, looked up): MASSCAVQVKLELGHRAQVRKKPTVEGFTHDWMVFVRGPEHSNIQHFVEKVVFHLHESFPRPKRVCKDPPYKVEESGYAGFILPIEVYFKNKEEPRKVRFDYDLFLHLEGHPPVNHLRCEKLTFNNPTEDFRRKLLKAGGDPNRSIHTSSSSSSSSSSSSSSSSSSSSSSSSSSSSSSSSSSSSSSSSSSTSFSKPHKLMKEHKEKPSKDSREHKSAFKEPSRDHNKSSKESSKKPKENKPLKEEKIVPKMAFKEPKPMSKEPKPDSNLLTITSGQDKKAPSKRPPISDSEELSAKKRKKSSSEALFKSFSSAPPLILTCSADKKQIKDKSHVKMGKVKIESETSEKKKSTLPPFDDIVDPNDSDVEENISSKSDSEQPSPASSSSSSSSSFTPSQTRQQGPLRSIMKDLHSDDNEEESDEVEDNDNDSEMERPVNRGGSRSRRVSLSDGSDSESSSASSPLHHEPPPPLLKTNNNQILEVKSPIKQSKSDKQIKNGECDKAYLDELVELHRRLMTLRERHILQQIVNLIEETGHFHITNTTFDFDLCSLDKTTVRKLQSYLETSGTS
Beta cell apopt = blocks beta cell apoptosis; INS-1E cytokine-induced death, ATP luminescence, 48 h; percent of positive-control rescue, neutral wells zero; protection from apoptosis, % (test concentration not listed); 0.8% of 300,000 active;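 active = all replicates at 75% or more, or half of them and the mean; inconclusive = half reach 75% but not the mean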;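 note: 0% = cytokine-treated negative control wells and 100% = positive control rescue; higher means more ATP so stronger rescue from cytokine killing; wells of about 40 µL received 100 nL stock; the first replicate is given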
Ecoli growth = E. coli growth inhibition; Escherichia coli growth, OD600, 23 h; stronger effect = lower value; OD600 absorbance (no concentration beside the values); 0.21% of 330,000 active;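 active = OD600 absorbance below the run mean of sample wells minus 3.6 SD, in any replicate, cut at about 0.56 in these data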;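 note: stock transfer was 300 nL into about 60 µL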
FGF22 binding = shifts melting point of recombinant human FGF22. Q9HCT0. recombinant FGF22 thermal shift, SYPRO orange fluorescence; percent of sucrose octasulfate shift, DMSO zero. calls only at 9.99 µM. 1.5% of 340,000 active;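 active = melting point raised past a set limit in the mean and every replicate; inconclusive = no clear call; three in four hits are not shown here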
Target sequence (Q9HCT0 whole entry, looked up): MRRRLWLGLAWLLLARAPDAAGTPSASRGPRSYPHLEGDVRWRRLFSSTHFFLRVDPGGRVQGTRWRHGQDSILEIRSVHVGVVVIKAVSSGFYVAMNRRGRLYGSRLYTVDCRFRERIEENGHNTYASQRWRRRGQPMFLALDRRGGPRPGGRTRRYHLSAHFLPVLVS
rRNA inh HTS OD600 = further read-out of rRNA inh HTS, marked with its call; OD600 change, %; measured here: OD600 growth;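 optical density of the mix in the first replicate; 0 = DMSO median and -100 = no signal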
rRNA inh HTS RFP = also measured in rRNA inh HTS; calls as there; RFP signal change, %; measured here: RFP humanized mutant strains;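 first replicate; 0 = DMSO median and -100 = no signal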
Numbers without * were called inactive; i = inactive; ? = inconclusive; / = not tested or not shown; + = active, no number.

SMILES	rRNA inh HTS	rRNA inh HTS OD600	rRNA inh HTS RFP	UCH37 DUB inh	T cruzi repl	Bfl-1 A1 inh	MLL AF4-AF9 inh	Beta cell apopt	Ecoli growth	FGF22 binding
COc1cc(/C=C/c2onc(C)c2[N+](=O)[O-])cc(OC)c1OC	12	7	3.2	6.7	-1	0.5	-1.6	-4	0.73	i
O=C(CSc1nc2c(cnn2-c2ccc(F)cc2)c(=O)[nH]1)N1CCCc2ccccc21	/	/	/	-0.6	35	-0.3	/	/	0.69	/
CCc1sc2nc(SCC(=O)Nc3cc(C)on3)n(-c3cccc(OC)c3)c(=O)c2c1C	/	/	/	-5.8	-4	?	/	46	0.79	/
COC(=O)C1=C(C)N(c2ccc(OC)c(OC)c2)C(=O)C1	/	/	/	1.8	-19	0.4	/	/	0.67	/
CC[C@@H](C)[C@H](NC(=O)Cc1c(C)c2c(cc(C)c3c(C)coc32)oc1=O)C(=O)O	-14	-18	2.4	-359	-8	-0.1	-1.3	-9	0.64	/
CCNC(=O)OCC12CC3CC(CC(C3)C1)C2	2	16	8.7	2.8	20	-0.4	-12	-9	0.67	i
CCc1ccc(NC(=O)NCC2CCN(c3ccc(OC)cc3)C2)cc1 (centres undefined)	1	-10	0.1	-0.6	9	0.0	2.3	-4	0.73	i
Cc1cc(C)cc(C(=O)N2CCN=C2SCc2ccc([N+](=O)[O-])cc2)c1	8	6	-1.1	2.8	31	0.4	11	13	0.67	i
CCOc1ccc(/C=N/NC(=O)c2ccoc2C)cc1OC	6	8	-2.8	/	4	1.3	-1.9	9	/	i
CC(=O)Nc1ccc(S(=O)(=O)Nc2ccccc2C(=O)N2CCCCCC2)cc1	-9	-5	-1.6	0.7	-13	2.9	4.1	-1	0.68	i
CC(Sc1ccccc1)C(=O)N1CCN(S(=O)(=O)c2ccccc2F)CC1 (centres undefined)	-5	-12	-4.1	4.7	1	0.8	-2.1	-4	0.72	i
O=C(COC(=O)c1ccccc1O)NCC1COc2ccccc2O1 (centres undefined)	-8	-16	-1.8	0.6	/	0.2	-6.4	-2	0.62	i
CCCc1nc2oc3c(NCc4ccccn4)ncnc3c2c2c1COC(C)(C)C2	/	/	/	-26	12	-0.5	/	-4	0.74	/
COc1cc(CO)cc(Br)c1OCC(=O)O	11	9	2.8	5.1	-7	-0.2	-2.3	1	0.74	i
CN(C(=O)COC(=O)COc1ccc2c(c1)CCC2)c1c(N)n(Cc2ccccc2)c(=O)[nH]c1=O	10	2	-2.0	-1.1	5	-1.1	0.9	0	0.65	i
COc1cc2ccccc2cc1C(=O)N1CC(C)CC(C)C1 (centres undefined)	-8	-19	-0.3	0.7	-3	0.4	-1.3	-5	0.66	i
C=CCN(c1ccccc1Cl)S(=O)(=O)c1cccc(C(=O)OCC(=O)N(C)C2CCS(=O)(=O)C2)c1 (centres undefined)	-24	-32	-6.3	-1.0	-4	-0.4	0.6	-3	0.68	i
Cc1ccc[n+](C(C)C(=O)Nc2ccc([N+](=O)[O-])cc2C)c1 (centres undefined)	11	10	27	2.8	-16	-0.2	-0.9	3	0.75	i
Cc1ccc(NC(=O)COC(=O)c2ccc(OC(F)F)cc2)cc1S(=O)(=O)N1CCCCC1	-7	-11	1.1	0.5	/	/	-22	/	0.65	i
Nc1nc2ccccc2cc1-c1cccs1	-13	-9	-1.9	-332	8	-1.7	-2.9	4	0.52	i

Only UCH37 DUB inh, Bfl-1 A1 inh and FGF22 binding (2 entries from above):
Structure,UCH37 DUB inh,Bfl-1 A1 inh,FGF22 binding
CCc1sc2nc(SCC(=O)Nc3cc(C)on3)n(-c3cccc(OC)c3)c(=O)c2c1C,-5.8,?,/
COC(=O)C1=C(C)N(c2ccc(OC)c(OC)c2)C(=O)C1,1.8,0.4,/

(continued)
SMILES	rRNA inh HTS	rRNA inh HTS OD600	rRNA inh HTS RFP	UCH37 DUB inh	T cruzi repl	Bfl-1 A1 inh	MLL AF4-AF9 inh	Beta cell apopt	Ecoli growth	FGF22 binding
O=C(COC(=O)Cc1ccsc1)NC(c1ccccc1)c1ccccc1	/	/	/	0.8	-11	0.9	/	-3	0.67	/
COc1cc(/C=C/C(=O)OCC(=O)N(C)Cc2ccccc2)cc(OC)c1OC	-2	-20	0.9	-15	/	1.6	0.4	-4	0.64	i
CCOc1ccc(S(=O)(=O)N2CCCCC2)cc1NC(=O)C1CCC1	2	4	-0.4	-0.8	9	0.4	0.9	-4	0.6	i
Cc1cc(O)c(C(C[N+](=O)[O-])c2ccc(Cl)cc2)c(=O)o1 (centres undefined)	/	/	/	3.0	-15	-0.4	/	-1	0.7	/
CC(C)Oc1ccc(S(=O)(=O)N2CCOCC2)cc1NC(=O)C1=COCCO1	-2	-7	-1.2	/	40	0.0	0.3	-1	/	i
CCOC(=O)C1=C(COC(=O)c2ccccc2[N+](=O)[O-])NC(=O)NC1C (centres undefined)	7	9	3.2	5.2	-10	0.3	-0.8	-6	0.65	i
CCCN(CCC)CCCNC(=O)CCNS(=O)(=O)c1ccc(Br)cc1	6	22	0.5	6.6	9	0.2	3.8	-9	0.67	i
CC(=O)Nc1sc(C)c(C)c1C(=O)OCC(=O)NCc1ccccc1	6	6	-2.2	-22	/	/	5.0	/	0.71	i
Cn1c(=NC(=O)c2ccco2)sc2cccc(F)c21	-10	-1	1.4	-0.3	-8	-6.0	3.6	2	0.8	i
CN(Cc1ccccc1)C(=S)NC(=O)c1ccccc1	-40	-54	-10	1.8	-8	-0.2	2.0	-7	0.69	/
COc1ccc(Cl)cc1/C=C1/C(=O)ON=C1C	5	1	0.4	-0.5	-4	1.5	0.0	/	0.68	i
CCC1=NN(C(=O)COc2ccccc2)C(O)(c2ccc(Br)cc2)C1 (centres undefined)	-51	-63	-3.0	0.7	14	0.5	-1.1	-6	0.72	/
COc1cc([N+](=O)[O-])ccc1NC(=O)Cc1ccc(C)cc1	/	/	/	4.2	4	0.7	/	-6	0.66	/
COc1ccc(N(CC(=O)N2CCN(Cc3ccccc3)CC2)S(C)(=O)=O)cc1Cl	-4	5	0.7	2.0	9	-0.4	-3.8	-17	0.72	i
Cc1ccc(NC(=O)c2cncc(Br)c2)cc1S(=O)(=O)N(C)C	/	/	/	5.2	-5	0.7	/	0	0.67	/
CC(=O)O[C@H]1C(=O)[C@@]2(C)C([C@H](OC(=O)c3ccccc3)[C@]3(O)C[C@H](OC(=O)[C@H](O)[C@@H](NC(=O)c4ccccc4)c4ccccc4)C(C)=C1C3(C)C)[C@]1(OC(C)=O)CO[C@@H]1C[C@H]2O (some centres undefined)	12	17	10	3.1	61*	-0.4	-0.7	23	0.75	i
CC1CCC/C(=N\NS(=O)(=O)c2ccccc2)C1 (centres undefined)	11	-1	-4.1	/	-13	-1.0	-13	3	/	i
COc1ccc(-c2n[nH]c(=S)o2)c(OC)c1	/	/	/	-22	-20	0.5	/	-1	0.69	/
Cc1ccn2c(=O)nc(SCC(=O)NCc3ccc(F)cc3)nc2c1	8	16	0.6	-2.0	-13	1.0	-12	-3	0.59	i
O=C(O)C1=C[C@H](c2ccc(F)cc2)C[C@H](OCc2ccc(CO)cc2)O1	-4	1	-1.0	1.9	-14	1.9	0.9	-2	/	i
Cc1ccccc1CN(C)C(C)C(=O)NCc1ccccc1 (centres undefined)	6	-1	2.3	2.7	-7	0.0	-2.4	-7	0.69	i
COc1ccc2c(=O)cc(-c3ccccc3)n(C)c2c1	/	/	/	3.2	/	0.5	/	6	0.69	/
CCOC(=O)N1CCN(C(=O)C2CCN(Cc3ccc(O)c(OCC)c3)CC2)CC1	19	21	-4.9	3.2	-15	1.1	1.3	-5	0.74	/
O=C(Nc1nc2ccc(Cl)cc2s1)C1CCCO1 (centres undefined)	/	/	/	4.1	32	-1.9	/	5	0.69	/
CCCCN(C(=N)N1CCCCC1)c1nc(C)c([N+](=O)[O-])c(=O)[nH]1	11	-8	6.3	8.8	-34	-1.8	-7.2	1	0.7	i
N#Cc1c(NC(=O)CSc2ncnc3c2cnn3-c2ccccc2Cl)sc2c1CCCC2	/	/	/	0.3	-1	0.8	/	11	0.72	/
Cc1cc(OC(=O)c2ccc(S(=O)(=O)N(C)C)cc2)cc(=O)o1	/	/	/	4.2	-6	-0.9	/	-19	0.67	/
Cn1nnnc1SCC(=O)Nc1cc(C(C)(C)C)nn1-c1ccccc1	/	/	/	0.3	-6	-0.3	/	-4	0.73	/
O=C1c2ccccc2C(=O)N1CC1c2ccccc2CCN1C(=O)C1CCCCC1 (centres undefined)	/	/	/	3.7	10	-0.4	/	4	0.72	/
Cc1c(C#N)c2ccccc2n1CC(=O)N1CCCc2ccccc21	/	/	/	4.1	-3	0.8	/	1	0.8	/
O=C(NCCNc1ccc([N+](=O)[O-])cc1)c1cccs1	-5	5	-2.9	2.8	-7	0.3	-3.7	-6	0.64	i
O=c1c2ccccc2nnn1COc1ccc(F)cc1Cl	1	23	3.1	2.4	17	-3.9	-0.4	-6	0.65	i
O=C(NC1CCCC1)c1ncn[nH]1	/	/	/	4.7	-14	-0.6	/	-6	0.64	/
CCOC(=O)c1cccc(NC(=O)COc2ccc([N+](=O)[O-])cc2)c1	/	/	/	3.8	-12	-0.4	/	-2	0.64	/
c1ccc(-c2nn3c(Cn4nnc5ccccc54)nnc3s2)cc1	3	1	-3.9	5.8	7	0.1	14	-1	0.64	i
CN1CCN(c2nc(-c3ccc(C(C)(C)C)cc3)nc3ccccc23)CC1	9	2	-1.9	2.0	37	-2.4	11	6	0.58	i
COc1ccc(C(=O)NCC(=O)OCC(=O)N2CCCc3ccccc32)cc1	1	-8	-2.7	0.6	-19	1.3	-2.6	-3	0.69	i
Cc1cc(NS(=O)(=O)c2ccc(NC(=S)NC(=O)c3cccc(S(=O)(=O)N(C)C)c3)cc2)no1	5	-4	-6.3	2.3	-2	-1.0	-3.5	-4	0.69	i
COc1ccc(-c2noc(C(=O)NCc3ccc(F)cc3)n2)cc1OC	-10	-1	2.0	4.4	4	-0.2	-2.8	1	0.67	i
COc1ccc(S(=O)(=O)Nc2ccc(NC(C)=O)cc2)cc1Cl	5	12	-2.7	2.7	0	0.8	-1.8	-7	0.71	+
O=c1cnn(Cc2ccc(F)cc2)c2ccccc12	-5	1	-4.4	9.8	-4	0.0	2.6	-1	0.66	i
Cc1c(C(C)C)c(=O)n(-c2ccc(S(=O)(=O)NC(C)C)cc2)n1C	13	7	1.7	4.6	-11	1.1	-2.6	6	0.66	/
Cn1c(=O)[nH]c(=O)c2c1nc(CN1CCN(c3ccc(F)cc3)CC1)n2CCN1CCOCC1	8	9	2.2	3.3	-20	0.7	0.3	2	0.73	i
CCCCn1c(SCC(=O)Nc2nnc(C(C)C)s2)nc2c1c(=O)n(C)c(=O)n2C	/	/	/	0.9	-26	0.8	/	22	0.68	/
CCOc1ccc(CCNC(=O)COC(=O)c2nn(C)c(=O)c3ccccc23)cc1OCC	0	5	1.3	4.5	-2	0.0	-3.5	-8	0.65	i

From PubChem BioAssay

The list is partial; count on the stated rates, not on these rows.
